Screens from PubChem.
VACV mCherry inh: inhibitors of vaccinia virus infection (mCherry reporter signal). hit rate 0.63% among 310,000. Vaccinia virus mCherry reporter infection, fluorescence; about a quarter of the inactives have no number. Potency, µM (top dose mostly 36.5 µM), without a hit: top-dose activity change, negative = inhibition, most hits filed as inhibitors. AID 720579; active = well fitted inhibition curve with a large enough effect; inconclusive = small, poorly fitted or top-dose-only effect; inactive = no such curve, though single readings can be large or run the other way; tested in A549 cells; further: nearly all actives have a fitted effect of over 35% in size; inactives centre near -10
Vaccinia Venus: inhibitors of vaccinia virus (Venus reporter) | Potency, µM (highest dose often 36.5 µM), for the others: top-dose activity change, negative = inhibition, usual class: inhibitors | hit rate 0.46% among 330,000 | Vaccinia virus Venus reporter expression, fluorescence; active means well fitted inhibition curve with a large enough effect; inconclusive means small, poorly fitted or top-dose-only effect; inactive means no such curve, though single readings can be large or run the other way; tested in A549 cells; further: nearly all actives have a fitted effect of over 30% in size; inactives centre near -10
The depositor's hits bear a star; i = inactive; ? = inconclusive; / = no result given; & = joins results of further samples; [ ] = another dose, or the depositor's remark. On the % scale 0 is the no-effect control and ±100 the full control effect; potency means the concentration at half of the fitted maximal effect.

canonical_smiles	VACV mCherry inh	Vaccinia Venus
O=S(=O)(NC(=S)NC1CCCCC1)c1ccc(Br)cc1	-6%	-3%
COc1ccc(C(=O)COC(=O)CCN2C(=O)C3CC=CCC3C2=O)c(OC)c1 (configuration not stated)	-15%	-19%
COc1ccc2cc(Br)ccc2c1CC(=O)NC(C)(C)C	-24%	-16%
CN1CCN(c2ccc(NC(=O)c3cccc(OCc4ccccc4)c3)cc2)CC1	/	-23%
CCCCCCCCN(CCCCCCCC)c1ccc(/C=C/c2ccnc3ccccc23)cc1	33%[activator]	17%
Cc1cccc(OCC(=O)NCC2(N3CCN(C)CC3)CCCCC2)c1	0%	-7%
NC(c1csc(NC(=O)Nc2cccc(Cl)c2)n1)c1ccccc1Cl (configuration not stated)	13%	-15%
CN(Cc1ccccc1)C(=O)c1ccccc1Br	i	0%
O=C(O)c1ccc(NC(=O)c2ccc(Cl)cc2)c(NC(=O)c2ccc(Cl)cc2)c1	i	-20%
CC1=C(C(=O)Nc2cccc(C(=O)N3CCN(c4cccc(C(F)(F)F)c4)CC3)c2)SCCO1	8%[7.34 µM]	18%[7.34 µM]
CCCNC(=O)c1onc(CSc2cccc(OC)c2)c1C(=O)NCCC	i	-9%
CC(C)CCNC(=O)CN(Cc1ccc2c(c1)OCO2)C(=O)Cn1nnc(-c2cccs2)n1	-7%	-5%
Cc1cccc(C)c1NC(=O)C(C)c1ccc(-c2ccccc2)c(F)c1 (configuration not stated)	-1%[1.46 µM]	-22%
CC(=O)Nc1ccc(NC(=O)C2(C)Cc3c(-c4ccc5c(c4)OCO5)ccnc3O2)cc1 (configuration not stated)	33%[activator]	-6%
OC[C@@H]1CN(Cc2ccccc2)C[C@H](n2cnc3c(NCc4ccc(F)cc4)ncnc32)O1	-15%	-9%
O=S(=O)(c1cccc(C(F)(F)F)c1)N1CCN(c2nc(-c3cccs3)nc3ccccc23)CC1	-5%	-15%
CC(=O)N1CCc2cc(CNS(=O)(=O)c3ccc(Cl)s3)ccc21	-7%	-10%
Cc1ccc(NC(=O)CN(C)S(=O)(=O)c2ccc3nc(C)sc3c2)c(C)c1	-9%	-10%
O=C1C[C@H]2CCCCC(=O)N3CC[C@@H](C1)[C@@H]23	-16%	0%
O=C1CC(C(=O)Nc2cccc(F)c2)n2c(nc3ccccc32)N1 (configuration not stated)	-14%	-12%
CCCOC(=O)c1c(-c2ccc(OC)cc2)oc2ccc(-c3ccc(OC)nc3)cc12	i	-11%
COc1ccccc1/C=C(/CC(=O)NCc1ccc2c(c1)OCO2)c1nc2ccccc2s1	-12%	-10%
COc1ccc(/C=N/Nc2ncnc3c2[nH]c2ccccc23)c(OC)c1OC	-13%	-9%
O=C(c1ccccc1)N1CCN(c2nc3ccc([N+](=O)[O-])cc3s2)CC1	-16%	?
CCCc1c(-c2ccc(F)cc2)ncn1CCc1ccccc1OC	-26%	?
COc1ccccc1Cn1c(C2CC(=O)N(c3ccccc3OC)C2)nc2ccccc21 (configuration not stated)	-14%	-8%
O=C(CSc1ccccc1C(=O)O)NCc1ccco1	-4%	-2%
NC1=NC(=O)C2(COC(c3cccc([N+](=O)[O-])c3)OC2)S1 (configuration not stated)	i	4%
COC(=O)[C@@]12C[C@@H](CC(=O)N3CCC(c4ccccc4)CC3)C(=O)N(Cc3ccccc3)C1=CCC(C)(C)C2	?	?
COc1cc2c3c(c1)C(C)CC(C)(C)N3C(=O)C2=O (configuration not stated)	-12%	-10%
CCOC(=O)C1CCCN(c2nc3ccccc3nc2C(C#N)C(=O)OC(C)C)C1 (configuration not stated)	-3%	1%
Cc1ccc(CNC(=O)CCc2nnc3n(C)c(=O)c4sccc4n23)cc1	-16%	-20%
COC(=O)C(O)(c1ccc(N(C)C(=O)c2ccc(Cl)c(Cl)c2)cc1)C(F)(F)F (configuration not stated)	-15%	-10%
COc1ccccc1NC(=O)Nc1nc(CC(=O)NCc2cccnc2)cs1	-24%	-4%
CCOc1cc(N2C(=O)CC3CS(=O)(=O)CC32)c(OCC)cc1NC(=O)c1ccccc1 (configuration not stated)	-10%	-5%
CC(=O)N1CCN(C(c2ccccc2)c2ccccc2)CC1	-3%	-10%
CCOC(=O)c1ccc(S(=O)(=O)NNC(=O)COc2cccc(C)c2)cc1	-16%	-11%
COc1ccc(N2CCN(C(=O)C3CCN(S(=O)(=O)c4cccc5nonc45)CC3)CC2)cc1	-14%	-13%
CC(=O)c1ccc(NC(=O)COc2ccc3c(c2)OCO3)cc1	-4%	-5%
COc1cc(OC)cc(-c2c(C#Cc3ccsc3)c3cc(-c4ccc(OC)c(F)c4)ccc3n2C)c1	i	-2%
COc1ccc(CN2CCN(C(=O)c3ccc(S(=O)(=O)NCc4ccco4)cc3)CC2)cc1	-14%	-28%
COc1ccc(N2CCN(CCCNC(=O)c3cnn(-c4ccc(F)cc4)c3-n3cccc3)CC2)cc1	?	-28%
CCN1CCN(CC(O)COc2ccc(Cl)cc2)CC1 (configuration not stated)	/	-16%
Clc1ccc(-c2nc(Cc3ccccc3Cl)no2)cc1	/	-10%
COc1ccc(NC(=O)/C(C#N)=C/c2ccc(Sc3nncn3C)c([N+](=O)[O-])c2)cc1	-17%	-26%
CCOC(=O)c1c(NC(=S)NCCc2ccccc2)sc2c1CC(C(C)C)OC2 (configuration not stated)	i	-9%
CCCCCCCCCC1NC(C(=O)O)Cc2c1[nH]c1ccccc21 (configuration not stated)	-15%	-16%
O=C(NCCN1C(=O)S/C(=C\c2cccnc2)C1=O)c1cccc(OC(F)F)c1	i	-17%
CC(=O)c1ccc(NC(=O)CSc2nnc(Cc3cccn3C)n2-c2ccc(F)cc2)cc1	-4%	1%
Cc1ccc(-c2[nH]nc3c2C(c2ccccc2OC(=O)N2CCOCC2)C(C#N)=C(N)O3)cc1 (configuration not stated)	0%	-12%
O=C(Nc1cc(Cl)ccc1O)c1cc(-c2ccco2)on1	?	-2%
CCc1ccc(C(=O)c2cn(CC(=O)Nc3ccc(F)cc3)c3ccc(OC)cc3c2=O)cc1	-14%	-8%
Cc1cccc(N2CCN(C(=O)c3cnn4c(C(F)F)cc(-c5ccccc5)nc34)CC2)c1C	-3%	?
COc1ccc(N(CC(=O)NCCc2ccccc2)C(=O)CCC(=O)Nc2nccs2)cc1	-4%	0%
COC(=O)c1nc(N)sc1-c1ccc(OC)cc1	-9%	3%
Cc1cccc(NC(=O)CSc2nc3ccccc3nc2N2CCOCC2)c1C	-4%	-6%
CN1C=CC=C/C1=C1\SC(=S)N(Cc2ccccc2)C1=O	i	-12%
C=CCn1c(=O)c(C=Nc2c(OC)cccc2[N+](=O)[O-])c(O)n(CCCC)c1=O	-30%	1%
O=C(NCCCc1ccccc1)c1cccc([N+](=O)[O-])c1	-3%	-17%
CCCCOc1ccc2c(c1)C(=O)c1cc(O)ccc1-2	-18%	-11%

Further entries
canonical_smiles	VACV mCherry inh	Vaccinia Venus
CCN(CC)C(=O)C(=O)N/N=C/c1cccs1	/	-5%
O=C1CC(Nc2ccccc2)C(=O)N1CCc1ccccc1 (configuration not stated)	i	-9%
CC(C)(Sc1cc(C(C)(C)C)c(O)c(C(C)(C)C)c1)Sc1cc(C(C)(C)C)c(O)c(C(C)(C)C)c1	-1%&-2%	-11%&-12%
C(=N\n1cnnc1)/c1ccccc1OCCOc1ccccc1	-17%	-13%
O=C(CCNC(=O)Cn1ccc2ccccc2c1=O)NCC1CCCC1c1ccccc1 (configuration not stated)	i	-3%
Cc1cc(C)c2oc(C(=O)Nc3ccc(S(=O)(=O)N4CCC(C)CC4)cc3)cc(=O)c2c1	6%	-4%
COc1ccc(CCNC(=O)CCc2c(C)nc3c(c(C)nn3-c3ccccc3)c2C)c(OC)c1	-19%	-15%
Cc1onc(-c2ccccc2Cl)c1C(=O)OCC(=O)N1CCN(c2ccccc2)CC1	-23%	-8%
COc1cc(C(=O)N/N=C/c2coc3ccc(Cl)cc3c2=O)ccc1O	-10%	-6%
CC(CCC(=O)O)C1CCC2C3CC(O)C4CC(O)CC[C@]4(C)C3CCC12C (some centres not stated)	-5%	9%
Cc1cccc(-c2nc3c(cnn3-c3ccccc3)c(=O)n2-c2ccc(Cl)cc2)c1	-18%	-6%
O=C(COc1ccc(Cl)cc1)NCCSCc1ccccc1Cl	i	-7%
Cc1cccnc1NC(=O)c1cccc(S(=O)(=O)N2CCCC2)c1	-19%	-13%
CC(C)c1nnc(NC(=O)c2cc3cc(Br)ccc3oc2=O)s1	-10%	-7%
COc1cc(OC)cc(C(=O)OCc2ccc([N+](=O)[O-])cc2)c1	-7%	-11%
Cc1cc(-n2c(C)nc3ccccc3c2=O)ccc1NC(=O)c1cccc([N+](=O)[O-])c1	-14%	0%
CCOC(=O)c1c(C)[nH]c(C)c1S(=O)(=O)N1CCCC(C(=O)Nc2ccc(OC)c(Cl)c2)C1 (configuration not stated)	-12%	-14%
CCNC(=O)COC(=O)c1[nH]c(C)c(C(=O)OC)c1C	i	-4%
CSc1ccc(-c2nnn(Cc3ccc(Br)cc3)n2)cc1	-13%	-12%
CCOC(=O)C(C)(C)Sc1ncnc2nc[nH]c12	-13%	-4%
COC(=O)[C@@]12CCCCN1[C@H](c1ccc(-c3ccc(C(C)=O)cc3)cc1)[C@@H]1C(=O)N(C)C(=O)[C@@H]12	-26%	?
Cc1cccc(NC(=O)c2cccc(OC(=S)N3CCOCC3)c2)c1C	-11%	-11%
COc1ccc(CNc2nnnn2C)cc1	i	1%
COc1ccc(N2CCN(CCNC(=O)Nc3ccc([N+](=O)[O-])cc3OC)CC2)cc1	?	-23%
COc1ccc(OC)c(Nc2cc3ccccc3c(=O)[nH]2)c1	?	-12%
COc1ccc(C2C=C(c3ccccc3)Nc3nc(NC(=O)/C=C/c4ccccc4)nn32)cc1 (configuration not stated)	-4%	-9%
COc1cc(CNC2CCCCCC2)cc(OC)c1	i	-7%
O=C(COC(=O)c1cccc(N2C(=O)C3CC=CCC3C2=O)c1)c1ccccc1 (configuration not stated)	-1%	-8%
CCOC(=O)c1c(S(=O)(=O)N2CCC(C(=O)NCc3ccccc3Cl)CC2)c(C)n(C)c1C	-3%	-3%
COc1ccc2cc3c(N)nn(C(=O)C4CCC(C(C)(C)C)CC4)c3nc2c1 (configuration not stated)	?	14µM*

Complete entries, looked up by structure. Values in the order: VACV mCherry inh, Vaccinia Venus
C(=N\n1cnnc1)/c1ccccc1OCCOc1ccccc1 is listed as -17%, -13%
O=S(=O)(c1cccc(C(F)(F)F)c1)N1CCN(c2nc(-c3cccs3)nc3ccccc23)CC1 is listed as -5%, -15%

Some of the entries so far, as labelled records:
COC(=O)[C@@]12CCCCN1[C@H](c1ccc(-c3ccc(C(C)=O)cc3)cc1)[C@@H]1C(=O)N(C)C(=O)[C@@H]12
  VACV mCherry inh: -26% | Vaccinia Venus: ?

Cc1cccc(NC(=O)c2cccc(OC(=S)N3CCOCC3)c2)c1C
  VACV mCherry inh: -11% | Vaccinia Venus: -11%

COc1ccc(CNc2nnnn2C)cc1
  VACV mCherry inh: i | Vaccinia Venus: 1%

COc1ccc(N2CCN(CCNC(=O)Nc3ccc([N+](=O)[O-])cc3OC)CC2)cc1
  VACV mCherry inh: ? | Vaccinia Venus: -23%

(next part)
canonical_smiles	VACV mCherry inh	Vaccinia Venus
Cc1c(C#N)c(N)nc2c3c(sc12)NC(=O)CC3c1ccc(Cl)cc1 (configuration not stated)	?	?
O=C(C[C@@H]1C/C=C\C[C@@H](Cc2ccc(F)cc2)C(=O)OC[C@@H](Cc2ccccc2)NC1=O)N[C@H](CO)Cc1ccccc1	-9%	-15%
CS(=O)(=O)c1ccc(Cl)c(NC(=O)CN2CCN(C(=O)c3cccs3)CC2)c1	-3%	6%
O=C(Nc1ccc(Br)cc1)c1nn(C23CC4CC(CC(C4)C2)C3)cc1Br	/	-7%
CC1(C(=O)O)CCN1C(=O)c1cccnc1Oc1ccccc1 (configuration not stated)	10%	-2%
COc1cc(F)ccc1-c1csc(C(C)(NC(C)=O)c2ccccc2)n1 (configuration not stated)	i	-13%
CCCSc1nnc2n(-c3cccc(C)c3)c(=O)c3c4c(sc3n12)CCCC4	-17%	0%
CC(=NNc1ccccc1)C(C)=NNc1ccccc1	-1%	-8%
CCOC(=O)c1cnc2ccc(C(=O)OC)cc2c1Nc1ccc2c(c1)OCCO2	-9%	-10%
COc1ccc(-n2c(Cn3c(=O)sc4ccccc43)nnc2SCC(N)=O)cc1	-7%	-5%
CCCCNC(=O)C1CC(=O)N(CCc2ccc(C)cc2)C1 (configuration not stated)	i	-4%
CCCCCCNC(=O)c1cccc(-c2ccc(C)c3ccccc23)n1	-11%	-20%
Cc1ccc(C(=O)NC(=S)Nc2ccc(-c3cc4ccccc4oc3=O)cc2)c(C)c1	/	1%
COc1ccc(CCn2nnnc2C(c2ccc(C)cc2)N2CCN(C)CC2)cc1OC (configuration not stated)	i	-19%
CC(C)n1nnnc1SCC(=O)NNC(=O)C1CCCCC1	-15%	-13%
